# Compound activity: PubChem BioAssay, several laboratories
# Mtb growth – M. tuberculosis H37Rv growth inhibitors, H37Rv strain (AID 1626). 220,000 tested, 0.95% active. inhibition, % at 10 µM, or IC50 in µM where a hit was titrated. M. tuberculosis H37Rv growth inhibition; higher % means a stronger effect;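 active means confirmed in a dose series; inconclusive means inhibition above 80% but not taken into the dose series; inactive means below 80% or under 30% at every dose of the series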;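 further: bacteria incubated seven days before Alamar blue readout; 0% = bacteria only wells and 100% = bacteria with antibiotic wells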
# RecA intein inh – inhibitors of M. tuberculosis RecA intein splicing; P9WHJ3; 290,000 tested, 0.75% active; inhibition, %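 (about 9 µM by stock and volumes)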; AID 2221; cell-free RecA intein splicing, fluorescence; in the data active means inhibition above about 30%; inconclusive means no clear call, values can overlap the other calls;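 further: 0% = vehicle wells and 100% = reference inhibitor control wells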
# Target sequence (P9WHJ3 whole entry, looked up): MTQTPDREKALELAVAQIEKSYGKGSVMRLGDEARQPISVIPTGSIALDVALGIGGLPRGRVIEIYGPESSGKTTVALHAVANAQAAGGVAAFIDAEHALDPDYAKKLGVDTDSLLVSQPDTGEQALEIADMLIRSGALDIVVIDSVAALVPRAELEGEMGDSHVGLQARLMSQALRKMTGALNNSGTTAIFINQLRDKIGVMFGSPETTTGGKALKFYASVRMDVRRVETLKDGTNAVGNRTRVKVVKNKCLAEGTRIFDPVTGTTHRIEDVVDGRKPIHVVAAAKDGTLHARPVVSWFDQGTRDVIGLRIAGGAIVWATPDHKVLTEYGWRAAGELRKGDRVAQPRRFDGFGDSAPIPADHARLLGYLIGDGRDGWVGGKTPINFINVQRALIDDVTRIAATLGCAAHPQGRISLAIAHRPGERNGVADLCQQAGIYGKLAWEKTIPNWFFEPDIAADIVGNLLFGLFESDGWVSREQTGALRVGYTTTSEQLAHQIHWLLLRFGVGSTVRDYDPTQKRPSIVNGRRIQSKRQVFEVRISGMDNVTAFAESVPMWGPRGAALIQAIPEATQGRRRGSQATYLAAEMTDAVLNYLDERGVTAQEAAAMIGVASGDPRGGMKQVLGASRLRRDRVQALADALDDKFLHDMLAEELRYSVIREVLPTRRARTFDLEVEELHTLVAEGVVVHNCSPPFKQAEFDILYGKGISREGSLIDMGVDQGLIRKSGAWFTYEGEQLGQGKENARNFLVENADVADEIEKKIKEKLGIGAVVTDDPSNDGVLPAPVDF
# Mtb betalactam – beta-lactam sensitization of Mtb H37Rv. inhibition, % at 25 µM. AID 434955. M. tuberculosis H37Rv growth with meropenem, percent inhibition; hits of this screen are not shown here. 330,000 tested, 0.27% active;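 active means about 74% or more and at least 40 points above the plate without the antibiotic, then above 30% in a dose series; inconclusive means first-round hits that could not be retested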;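 further: growth measured after seven days incubation then overnight dye step; 0% = bacteria only wells and 100% = bacteria with antibiotic; twin plates without the antibiotic show which effects depend on it; some results filed as inactive read as strong as hits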
# Arbovirus anti – blocks arbovirus infection | 200,000 tested, 0.37% active | arbovirus infection cell-based antiviral screen | inhibition, % at 10 µM | AID 1251;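 active means inhibition from about 30%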;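 further: bluetongue infection of BSR cells; cell survival read as ATP light after 72 h; 0% = infected wells without compound and 100% = uninfected wells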
# YopH inh – YopH (Yersinia) phosphatase inhibition. fluorescence Ex485/Em525. inhibition, %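 (about 10 µM by stock and volumes)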. 140,000 tested, 0.16% active. AID 898;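 active means inhibition of 50% or more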;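 further: controls were vehicle for no effect and minimum signal wells for full effect; inactives centre near -20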
# Arbovirus anti repeat – second read-out of Arbovirus anti, no call of its own (marks repeat the call); inhibition, %; measured here: 10K subset replicate screen; many hits read low in the repeat;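 first of two repeat runs on a subset; 0% = infected and 100% = uninfected wells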
# Active calls of the source: *; ? = inconclusive; . = no result given.
SMILES,Mtb growth,RecA intein inh,Mtb betalactam,Arbovirus anti,YopH inh,others
CCC(=O)NC(Nc1sc2c(c1C(=O)OC)CCC2)C(Cl)(Cl)Cl (stereo not drawn),0%,1.1,11,7,-20,
Cc1ccc(C(=O)Nc2cccc3[nH]c(C(F)(F)F)nc23)cc1,.,-0.5,-15,.,.,
O=C(Nc1cc(C(F)(F)F)ccc1-n1cncn1)c1ccc(-c2ccccc2)cc1,-4%,0.8,6,2,0,
COc1cc(/C=C/C(=O)OCC(=O)NC2CC2)cc(S(=O)(=O)N2CCc3ccccc32)c1OC,2%,-0.1,-5,1,.,
O=C1c2ccc3c4c(ccc(c24)C(=O)N1NC(=O)C(F)(F)F)CC3,-8%,3.6,3,7,-1,
O=C(NCCCn1ccnc1)Nc1cccc(Cl)c1,-4%,-1.2,-5,0,7,
COc1ccc(/C=C2\Oc3cc(OCC(=O)N4CC(O)C[C@H]4C(=O)O)ccc3C2=O)cc1OC (stereo partly drawn),.,0.8,-3,.,.,
O=C(COC(=O)c1sc2ccccc2c1Cl)NC1CCCCC1,13µM*,0.1,95,2,-21,
Cc1cc(=O)oc2cc(OCC(=O)N3CC[C@@]4(O)CCCC[C@H]4C3)c(Cl)cc12,.,0.4,1,.,.,
CC(C)Cc1cc(C(=O)Nc2cccnc2)no1,79%,0.4,68,10,-38,
COc1cc(/C=N/Nc2ccc(S(N)(=O)=O)cc2)cc(OC)c1OC,-2%,-0.4,0,-7,.,
O=C(CSc1nc(=O)n(CCN2CCOCC2)c2c1CCCC2)Nc1ccc(F)cc1F,.,2.9,-6,.,.,

# Next part; it opens with the 4 that closed the last part.
SMILES,Mtb growth,RecA intein inh,Mtb betalactam,Arbovirus anti,YopH inh,others
Cc1cc(=O)oc2cc(OCC(=O)N3CC[C@@]4(O)CCCC[C@H]4C3)c(Cl)cc12,.,0.4,1,.,.,
CC(C)Cc1cc(C(=O)Nc2cccnc2)no1,79%,0.4,68,10,-38,
COc1cc(/C=N/Nc2ccc(S(N)(=O)=O)cc2)cc(OC)c1OC,-2%,-0.4,0,-7,.,
O=C(CSc1nc(=O)n(CCN2CCOCC2)c2c1CCCC2)Nc1ccc(F)cc1F,.,2.9,-6,.,.,
COC(=O)c1sccc1NC(=O)c1ccccc1[N+](=O)[O-],3%,2.3,-5,-5,7,
CC(C(=O)N1CCc2ccccc21)N1CCN(c2ccccn2)CC1 (stereo not drawn),9%,-1.8,0,7,-34,
CCOC(=O)Cc1cc(=O)n2[nH]c(C)c(-c3ccccc3OC)c2n1,3%,0.1,1,2,.,
CN1C(=O)C(=O)/C(=C(/O)c2ccc(Br)cc2)C1c1ccccc1F (stereo not drawn),.,1.8,1,.,.,
Clc1ccc(N2CCN(/N=C/c3ccncc3)CC2)cc1,10%,6.5,0,.,.,
COc1ccc(OC)c(S(=O)(=O)NCCCn2ccnc2)c1,.,-1.4,1,.,.,
CCc1cccc(NC(=S)N(CCN(C)C)C2CCN(C(C)C)CC2)c1,.,-2.0,7,.,.,
C=C(C)c1cccc(C(C)(C)NC(=O)NC2CN3CCC2CC3)c1 (stereo not drawn),-3%,2.2,1,2,-23,Arbovirus anti repeat=-1
O=C(O)C(F)=C1c2ccccc2-c2ccccc21,.,0.7,-9,.,.,
COC(=O)[C@]1(C)N[C@H](c2ccc(-c3ccccc3)cc2)[C@@H]2C(=O)N(C)C(=O)[C@@H]21,.,-2.3,-1,.,.,
CCOC(=O)Cc1csc(NC(=O)COc2ccc(C)cc2)n1,1%,-1.5,-12,-1,.,
CCCCCCCCSc1n[nH]c(N)n1,-1%,1.2,3,-8,-22,

# Random excerpt: 2 entries already listed.
SMILES,Mtb growth,RecA intein inh,Mtb betalactam,Arbovirus anti,YopH inh,others
CN1C(=O)C(=O)/C(=C(/O)c2ccc(Br)cc2)C1c1ccccc1F (stereo not drawn),.,1.8,1,.,.,
COc1ccc(OC)c(S(=O)(=O)NCCCn2ccnc2)c1,.,-1.4,1,.,.,

# (more compounds)
SMILES,Mtb growth,RecA intein inh,Mtb betalactam,Arbovirus anti,YopH inh,others
CC(C)CN(C(=O)COC(=O)Cc1n[nH]c(=O)c2ccccc12)C1CCS(=O)(=O)C1 (stereo not drawn),-3%,0.3,0,1,33,
CCOC(=O)c1c(C)[nH]c(C)c1C(=O)CSc1nnnn1-c1ccccc1,-4%,1.8,-6,9,0,
CNc1nc(-c2ccc3c(c2)CCN3C(=O)c2ccccc2C)cs1,4%,-0.1,92,-15,.,
CCOC1=C/C(=C/c2c(N)n3nc(-c4ccccc4)sc3nc2=O)C=CC1=O,-2%,2.9,.,33*,.,
CCc1nnc(NC(=O)c2cccs2)s1,-4%,0.4,-1,-2,.,Arbovirus anti repeat=1
CCc1ccc(OCc2ccc(C(=O)O)o2)cc1,.,0.2,3,.,.,
CCOC(=O)c1c(/N=C/C2=C(O)CCCC2=O)sc(C)c1C,-4%,-4.9,5,-15,-15,
Cc1ccc2nc(SCC(=O)Nc3cc([N+](=O)[O-])ccc3F)[nH]c2c1,0%,1.0,3,-27,-32,
CCOC(=O)C1CCCN(S(=O)(=O)c2ccc(Cl)nc2)C1 (stereo not drawn),.,6.8,-2,.,.,
CCC1Oc2ccccc2C(=O)N(CC(=O)c2ccc3c(c2)OCCO3)C1=O (stereo not drawn),.,6.6,6,.,.,
O=C(/C(C=Nc1cc2c(oc1=O)CCCC2=O)=C(\O)c1ccccc1)c1ccccc1,11%,-0.3,5,5,.,
CC(Oc1ccc(Cl)cc1Cl)C(=O)OCn1nnc2ccccc2c1=O (stereo not drawn),4%,-2.7,57,4,-25,
COc1ccc(NC(=O)C2CCC(CNS(=O)(=O)c3cccs3)CC2)cc1 (stereo not drawn),-1%,-6.3,6,13,.,
CCCCOC(=O)c1ccc(NC(=O)C(=O)NCc2ccccn2)cc1,>100µM*,2.4,89,.,.,
CCN(CCO)Cc1csc2cc(C)ccc12,-3%,0.6,-4,1,-23,
CCCCC(=O)NC1=C(C(=O)OC)SCC1,2%,2.3,-1,2,-19,
O=C(COC(=O)c1ccc(O)cc1)Nc1ccccc1-c1ccccc1,2%,4.4,1,-2,-36,
Cc1ccc(-c2cc(Cc3ccccc3)c(=O)[nH]n2)cc1,2%,5.7,-8,.,.,
COc1cccc(OCc2cc(/C=N/Nc3ccc(C(=O)O)cc3)ccc2OC)c1,1%,4.8,12,.,.,
CCC(C)(C)NC(=O)CN(C(=O)c1csnn1)c1cccc2c1CCCC2,2%,-3.7,2,9,.,
CCOC(=O)N1CCN(C(=O)CSC2=NS(=O)(=O)c3cc(F)ccc3N2)CC1,.,-1.4,5,.,.,
O=C(Nc1cc(Cl)ccc1-n1cncn1)c1ccc(F)c(S(=O)(=O)N2CCOCC2)c1,.,-1.3,-9,.,.,
N#Cc1c(-c2ccccc2)nc(SCc2ccc(Cl)cc2)[nH]c1=O,.,3.1,-9,.,.,
CC(=O)Nc1cccc(NC(=O)CCn2cnc3cc(C)c(C)cc32)c1,-13%,-0.7,3,-1,-38,
Cc1ccc(CSc2nc3ccncc3n2CC(=O)Nc2cc(C)cc(C)c2)cc1,22%,2.5,1,1,-22,
CCc1nc(N2CCOCC2)c(C#N)c2c1COC(C)(C)C2,1%,2.4,-2,-4,-43,
O=C(NC12CC3CC(CC(C3)C1)C2)C1CCCN1C(=O)NC1CCCCC1 (stereo not drawn),-9%,-2.2,-2,2,20,
COc1ccccc1/C=C(\NC(=O)c1ccc(OC)c(OC)c1)C(=O)Nc1cccc([N+](=O)[O-])c1,14%,-2.1,0,8,-13,
Cc1ccnc(N2C(=O)c3ccccc3C2Nc2cccc(C)c2C)c1 (stereo not drawn),4%,-5.6,4,-5,-26,Arbovirus anti repeat=-4
Cc1cccc(OCC(=O)Nc2ccc3oc(=O)ccc3c2)c1C,.,-0.7,-1,.,.,
Cn1c(=O)cc(N2CCc3ccccc32)[nH]c1=O,7%,0.3,0,-2,-38,Arbovirus anti repeat=1
Cc1cc2ccccn2c1C(=S)NC(=O)c1ccccc1,4%,2.1,6,7,-16,
COc1ccc(CNC(=O)[C@H](C)NC(=O)N2CCn3c2nc2ccccc23)cc1,.,0.3,-1,.,.,
Cc1[nH]c2ccccc2c1C(=O)COC(=O)Cn1c(C)nc2ccccc21,25%,2.0,?,4,-15,
c1ccc2c(c1)nc(Nc1ccc(N3CCCCC3)cc1)c1nncn12,17%,-5.7,2,.,.,
CCCCP(=O)(CCCC)CCP(=O)(c1ccccc1)c1ccccc1,0%,-0.8,-7,-3,-36,

# By substructure, those above with a cyano group
SMILES,Mtb growth,RecA intein inh,Mtb betalactam,Arbovirus anti,YopH inh,others
N#Cc1c(-c2ccccc2)nc(SCc2ccc(Cl)cc2)[nH]c1=O,.,3.1,-9,.,.,
CCc1nc(N2CCOCC2)c(C#N)c2c1COC(C)(C)C2,1%,2.4,-2,-4,-43,

# More entries.
SMILES,Mtb growth,RecA intein inh,Mtb betalactam,Arbovirus anti,YopH inh,others
O=C(N/N=C1/CC(c2ccccc2)Oc2ccccc21)C1CC1 (stereo not drawn),0%,-0.1,-2,-7,-17,
Cc1ccc([N+](=O)[O-])cc1N(CC(=O)Nc1ccc(S(=O)(=O)Nc2cccc(C(F)(F)F)c2)cc1)S(C)(=O)=O,48%,-0.1,-2,-34,-18,
Cc1ccc(-n2c(-c3ccncc3)nnc2-c2ccco2)cc1,-9%,1.6,?,1,-25,
O=c1[nH]c2ccccc2nc1-c1ccc(Cl)cc1,1%,1.6,-5,.,.,
CN(C(=O)CN1CCN(c2ccc([N+](=O)[O-])cn2)CC1)c1ccccc1,.,2.9,-7,.,.,
NNC(=O)C(=O)/C=C1\NC2(CCCC2)Cc2ccccc21,2%,.,5,.,.,
O=C(NC1CC1)c1scc2c1OCCO2,2%,1.5,3,7,-35,
CCOc1ccccc1CN1CCNC(=O)C1CC(=O)NCCCn1cccn1 (stereo not drawn),.,-0.9,-3,.,.,
Cc1ccc(CSC2=NCCN2C(=O)c2ccc([N+](=O)[O-])cc2)cc1,33%,3.9,7,3,.,
S=C(NCc1ccc2c(c1)OCO2)Nc1ccc(-c2nc3ccccc3[nH]2)cc1,49%,13,48,-22,-1,
O=C(CSc1nnc(-c2ccc(O)cc2)o1)Nc1ccc2c(c1)OCCO2,0%,-6.0,-3,-2,-8,
COc1ccc(/C=C/C(=O)NC2CC3CCC2C3)cc1 (stereo not drawn),.,-1.2,8,.,.,

# The last four records of the section above are carried over, then new ones follow:
SMILES,Mtb growth,RecA intein inh,Mtb betalactam,Arbovirus anti,YopH inh,others
Cc1ccc(CSC2=NCCN2C(=O)c2ccc([N+](=O)[O-])cc2)cc1,33%,3.9,7,3,.,
S=C(NCc1ccc2c(c1)OCO2)Nc1ccc(-c2nc3ccccc3[nH]2)cc1,49%,13,48,-22,-1,
O=C(CSc1nnc(-c2ccc(O)cc2)o1)Nc1ccc2c(c1)OCCO2,0%,-6.0,-3,-2,-8,
COc1ccc(/C=C/C(=O)NC2CC3CCC2C3)cc1 (stereo not drawn),.,-1.2,8,.,.,
CCc1nnc(NC(=O)/C=C/c2cccs2)s1,0%,-0.8,10,0,.,
CC(C)CNC(=O)c1cccc(NC(=O)C(C)Oc2ccccc2)c1 (stereo not drawn),10%,1.1,10,-1,.,
CCOC(=O)c1c(-c2ccc(OC)cc2)oc2ccc(OC(=O)N(C)C)cc12,4%,1.8,94,-8,-47,
O=C(CN1C(=O)c2ccccc2C1=O)Nc1ccc(Cl)cn1,-11%,-2.4,-2,4,.,

# An excerpt. The share of hits here may be higher or lower than overall.
